# Screens deposited in PubChem by National Center for Advancing Translational Sciences (NCATS).
# ClpP mod – qHTS Assay for Activators of ClpP | ATP-dependent Clp protease proteolytic subunit (Bacillus subtilis (strain 168)), P80244 | purified B. subtilis ClpP, FRET peptide cleavage, 20 min | Potency, µM (titrated, usually from 57.5 µM), for the others: at the top dose activity change, negative = active | 340,000 tested, 1.9% active; active = well fitted falling curve with a large enough effect; inconclusive = small, poorly fitted or top-dose-only effect; inactive = no such curve, though single readings can be large or run the other way; note: potency is the fitted concentration of half-maximal effect; the source files actives as falling curves though it sought activators and does not explain the sign; nearly all actives have a fitted effect of over 65% in size; many hits overshoot -100%
# Target sequence (P80244 whole entry, looked up): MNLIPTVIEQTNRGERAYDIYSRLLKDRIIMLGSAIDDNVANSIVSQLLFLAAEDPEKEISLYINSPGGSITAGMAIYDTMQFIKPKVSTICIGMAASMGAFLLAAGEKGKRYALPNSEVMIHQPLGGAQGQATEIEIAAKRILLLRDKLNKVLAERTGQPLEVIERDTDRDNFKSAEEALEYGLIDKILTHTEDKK
#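 FRET quenching reversal measured ClpP activation: 10 microg/mL B. subtilis ClpP at pH 8 with the FRET-FV decapeptide, read at 430 nm after 320 nm excitation. The 20-min minus 0-min signal was scaled between DMSO/no-enzyme wells and ADEP (5.8 microM final).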
# Menin MLL FP FL – menin-MLL binding inhibition, fluorescein peptide | Fluorescence polarization, fluorescein-MLL peptide displacement from menin | FP activity change, % at 61.4 µM | 290,000 tested, under 10 active | AID 1766; inconclusive = falling polarisation curve, or a change in total fluorescence; inactive = total fluorescence flat and polarisation flat or rising; no compound was filed as active; the % refers to the polarisation; negative = inhibition;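 note: % of control where 0% means no effect; inhibitors lower the polarisation; unlabelled MLL peptide was the positive control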
# TRPV1 PAM – enhances activation of the human vanilloid receptor TRPV1; 320,000 tested, 0.02% active; potentiation, % at 8.33 µM; TRPV1-expressing cells, Fluo-8 calcium influx, capsaicin EC20 potentiation; host cell line not named in the record; control for the full effect not named in the record; Q8NER1; AID 540277; active means potentiation above 80%; inconclusive means 30% to 80%; inactive means below 30%; note: 0% is about no effect
# Target sequence (Q8NER1 whole entry, looked up): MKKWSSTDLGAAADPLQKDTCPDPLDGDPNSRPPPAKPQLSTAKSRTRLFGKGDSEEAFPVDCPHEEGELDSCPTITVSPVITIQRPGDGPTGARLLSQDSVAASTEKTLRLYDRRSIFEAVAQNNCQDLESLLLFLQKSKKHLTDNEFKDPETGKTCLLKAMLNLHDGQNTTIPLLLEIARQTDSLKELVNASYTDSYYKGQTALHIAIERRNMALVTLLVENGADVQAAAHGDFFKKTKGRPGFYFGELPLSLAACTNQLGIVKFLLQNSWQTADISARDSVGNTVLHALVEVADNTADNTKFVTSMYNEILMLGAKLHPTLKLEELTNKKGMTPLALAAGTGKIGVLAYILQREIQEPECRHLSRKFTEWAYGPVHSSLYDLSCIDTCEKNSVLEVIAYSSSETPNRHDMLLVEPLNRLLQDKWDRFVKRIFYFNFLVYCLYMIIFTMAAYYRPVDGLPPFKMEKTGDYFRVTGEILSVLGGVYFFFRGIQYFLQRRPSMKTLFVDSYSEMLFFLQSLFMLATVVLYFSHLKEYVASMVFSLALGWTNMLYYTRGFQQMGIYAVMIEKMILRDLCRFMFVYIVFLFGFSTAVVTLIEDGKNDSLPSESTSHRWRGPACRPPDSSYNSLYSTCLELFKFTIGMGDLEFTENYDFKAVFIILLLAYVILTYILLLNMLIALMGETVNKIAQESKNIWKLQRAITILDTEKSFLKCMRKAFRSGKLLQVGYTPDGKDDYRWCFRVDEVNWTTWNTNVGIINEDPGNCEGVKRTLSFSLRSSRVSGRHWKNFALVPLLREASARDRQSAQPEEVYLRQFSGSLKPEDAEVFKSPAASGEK
#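 Fluo-8 calcium influx in TRPV1-expressing cells, kinetic read (ex 480/em 520 nm). Compound added and read 3 min for agonist activity, followed by capsaicin at EC20 final and 2 min further read for enhancement.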
# Sfp PPTase inh – blocks B. subtilis Sfp PPTase activity; Potency, µM, for the others: max response, negative = inhibition, hits mostly inhibitors; 310,000 tested, 3.5% active; Biochemical Sfp PPTase activity, qHTS; Q9F4F7; active = well fitted inhibition curve with a large enough effect; inconclusive = small, poorly fitted or top-dose-only effect, or another doubt; inactive = no such curve, though single readings can be large or run the other way;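 note: the enzyme is Sfp with the accession as filed and its product quenches rhodamine fluorescence; potency is the fitted concentration of half-maximal effect; 0% = enzyme reaction without inhibitor and -100% = no enzyme wells; top concentration of the series not given in the record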
#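 With Hepes-Na pH 7.6 buffer containing 10 mM MgCl2, Sfp (15 nM) modified BHQ-2-YbbR (12.5 uM) using rhodamine-CoA (5 uM). Two reads 30 minutes apart at 525/598 nm yielded each well's rate.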
# TRPML1 blocker – inhibitors of human TRPML1 channel; activity change, negative = inhibition, % (test concentration not listed); AID 624415; 390,000 tested, 0.02% active; Q9GZU1; TRPML1-inducible cells, Ca2+ dye fluorescence, FDSS; stronger effect = lower value; inhibition of EC80 agonist-evoked calcium signal; in the data active means activity change below about -50%; inconclusive means about -30% to -50%; inactive means above about -30%;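 note: stimulus is agonist 54-4 at its EC80 concentration; % is set by controls: 0 for no effect and ±100 for the full control effect; compound concentration not given in the record; the text of the record puts the active cut at -80%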
#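 Tet-induced TRPML1-DL cells loaded with Ca8 no-wash calcium dye were read kinetically on FDSS. Compound addition was followed by EC80 agonist 54-4 (4 uM final); inhibition was read over 110 s.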
# gsp agonist – agonists of gsp mutant (McCune-Albright syndrome); AID 624287; 340,000 tested, 0.13% active; gsp mutant cells, cAMP HTRF, 30 min; control for the full effect not named in the record; Potency, µM (top dose mostly 76.9 µM), without a hit: at the top dose activation (cAMP increase), usual class: activators; active = well fitted activation curve with a large enough effect; inconclusive = small, poorly fitted or top-dose-only effect, or another doubt; inactive = no such curve, though single readings can be large or run the other way; cell line not stated here;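 note: phosphodiesterase inhibitor Ro 20-1724 added with compounds to block cAMP breakdown; potency is the fitted concentration of half-maximal effect; nearly all actives have a fitted effect of over 60% in size; about a fifth of the inactives were tested at one dose only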
#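 Cells stably selected in G418 were plated at 2000/well, grown 16-24 hr, then given compounds in DMSO with the PDE inhibitor […] (300 uM solution added) for 30 min at 37C; cAMP was read by HTRF.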
# gsp antag – gsp mutant antagonism; gsp-mutant cells, cAMP HTRF, 30 min; control for the full effect not named in the record; Potency, µM (titrated, usually from 76.9 µM), for the others: at the top dose activity change, negative = inhibition, hits mostly inhibitors; 340,000 tested, 0.4% active; AID 624288; active = falling curve of any shape with a large fitted effect; inconclusive = falling curve, mostly with a smaller effect; inactive = flat or rising curve; cell line not stated here;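 note: intracellular cAMP measured with PDE inhibitor Ro 20-1724 present during compound exposure; potency is the fitted concentration of half-maximal effect; % is set by controls: 0 for no effect and ±100 for the full control effect; nearly all actives have a fitted effect of over 65% in size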
#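 G418-selected cells were plated in DMEM/10% FBS for 16-24 h at 37C, then treated with compounds plus the PDE inhibitor […] (300 uM solution added) for 30 min at 37C. Intracellular cAMP was measured by HTRF after 30 min lysis at room temperature.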
# * marks the source's active call; other numbers are inactive results; ? = inconclusive; · = not tested or not shown; & = joins results of further samples; [ ] = dose if it differs, or a comment.
SMILES,ClpP mod,Menin MLL FP FL,TRPV1 PAM,Sfp PPTase inh,TRPML1 blocker,gsp agonist,gsp antag
CCOC(=O)C(Cc1c[nH]c2ccccc12)NC(=O)CNC(C)=O (stereo not drawn),0.1%,1.9,2,13%,1,-28%,-6%
COC(=O)CC(NC(=O)c1ccc(C)cc1)c1ccc2c(c1)OCO2 (stereo not drawn),1.0%,-1.1,-12,10%,-8,4%,-3%
O=c1[nH]c(C2CCN(S(=O)(=O)Cc3ccccc3)CC2)nc2c1nnn2Cc1ccccc1,·,2.8,6,-7%,26,1%[15.4 µM],6%
NNc1nc2c(Cl)cccc2s1,-9.2%,16,3,-11%,-8,-29%[15.4 µM],-6%
O=C(Nc1ccccc1Cc1ccccc1)c1ccccc1F,·,-3.1,17,1%,-4,2%[15.4 µM],0%
O=c1[nH]c2ccccc2n1CCCSCCCn1c(=O)[nH]c2ccccc21,-1.5%,-0.5,-12,-27%,-2,8%,?
O=C(c1cccc(OC2CCN(Cc3cc(F)cc(F)c3)CC2)c1)N1CCCC1,-2.8%,-4.1,-6,11%,-7,-22%,2%
COc1ccc(NC(=O)c2cccc(N3C(=O)C4C5C=CC(C6CC56)C4C3=O)c2)cc1 (stereo not drawn),-3.0%,-0.7,-16,-5%,22,-25%,?
C(=N\Nc1nc(N2CCOCC2)nc(N2CCOCC2)n1)/c1cccnc1,0.9%,2.1,-16,7%,-10,14%,-2%
COc1ccc(Cl)cc1C(=O)Nc1nc2ccccc2[nH]1,3.9%,-3.1,-12,6%,27,?,-6%
CN1CCN(/N=C/c2nc(-c3ccccc3)n3ccccc23)CC1,-6.7%,0.0,-11,-10%,-6,8%,?
CCc1ccc(C2CC(c3ccccc3)Nc3nc(N)nn32)cc1 (stereo not drawn),-0.9%,-1.9,14,6%,-10,-62%[inhibitor],11%
COc1ccc(/C=C(\C#N)C(=O)C(C)(C)n2cncn2)cc1,·,16,-24,-6%,-7,-27%,9%
Nc1ncnc2nc(N3CCN(C(=O)c4ccccc4)CC3)[nH]c12,-1.4%,0.4,22,-1%,8,-50%[inhibitor],-4%
CCOC(=O)N1C(=O)c2cc(OC)ccc2S1(=O)=O,-1.5%,-2.7,-7,-3%,-17,-9%,2%
CCCCNC(=O)c1cc2cc(CC)ccc2[nH]1,3.5%,2.9,-28,-7%,8,3%,-9%
COCc1cc(C)nc2sc(C(=O)OC)c(N)c12,-1.1%,-7.4,-5,3%,-3,?,2%
C=CCN1C(=O)C2(NC(=O)c3ccccc3N2)c2ccccc21 (stereo not drawn),·,0.0,23,12%,26,5%[15.4 µM],26%
O=C(C1CCCN(S(=O)(=O)c2cccc3nsnc23)C1)N1CCN(c2ccccn2)CC1 (stereo not drawn),0.0%,-0.6,-6,5%,13,-48%[inhibitor],?
Cc1cccc(NC(=O)c2cnccn2)c1,-0.3%,0.3,-13,11%,-1,10%[15.4 µM],8%
CCN(CC)C(=O)c1cn(CCC#N)nc1-c1ccc2ccccc2c1,-0.3%,-7.2,14,21%,18,5%[15.4 µM],0%
COc1cccc2c(=O)n(CC(=O)N3CCC(C)CC3)ccc12,2.7%,6.6,-17,7%,21,-67%[inhibitor],6%
Cn1cc([C@@H]2C[C@H]3CN(C4CCCC4)C(=O)[C@]34CCCN24)c(-c2ccccc2)n1,·,5.5,-2,7%,8,-29%,-3%
COc1ccc(C(=O)CSc2nnc(-c3cc(C)on3)o2)cc1,-4.5%,6.5,10,-7%,-14,?,-10%
CNC(=O)c1[nH]nc2c1CCc1ccccc1-2,0.6%,3.8,9,17%,15,-14%[15.4 µM],7%

# Other records.
SMILES,ClpP mod,Menin MLL FP FL,TRPV1 PAM,Sfp PPTase inh,TRPML1 blocker,gsp agonist,gsp antag
O=C(CCC(=O)N1CCOc2ccccc21)Nc1cc(F)ccc1F,1.5%,-1.2,10,2%,7,0%,-1%
O=C(Cn1[nH]c(=O)c2ccccc2c1=O)NNC(=O)c1ccccc1,-5.8%,-5.1,-2,16%,19,8%,13%
Cc1cc(C)n(CCO)c(=O)n1,0.2%,0.8,-8,9%,1,-4%,8%
COCCn1nnnc1C1(N(Cc2cc3cc(C)ccc3[nH]c2=O)CC2CCCO2)CCN(C)CC1 (stereo not drawn),-4.8%,-1.4,-17,-3%,23,-31%[inhibitor],-4%
Cc1nc2nc(C)c(CCC(=O)NC3CCCCC3)c(C)n2n1,·,-5.6,1,22%,35,7%,4%
CC(=O)Nc1nc(-c2ccc(-c3ccccc3)cc2)cs1,-15%,·,·,·,-13,-29%,·
CCc1nc(N)nc(N)c1-c1ccc(Cl)cc1,-2.7%,0.3,-6,6%&19%&21%&15%,14,·,-3%
CC(=O)c1ccc(NC(=O)Nc2sc(NS(=O)(=O)c3ccccc3)nc2C)cc1,·,1.4,0,?,1,6%[15.4 µM],·
Cc1cc(F)ccc1S(=O)(=O)Nc1ccccc1C(=O)Nc1ccccc1N1CCOCC1,-4.6%,1.4,-6,6%,45,5%,?
COc1ccc(-c2nnc(SC(C)C(=O)Nc3nccs3)n2-c2ccccc2)cc1OC (stereo not drawn),-0.6%,-0.4,0,12%,15,?,-16%
Cc1oc(-c2ccc(F)cc2)nc1CN1CCCC(C(=O)N2CCOCC2)C1 (stereo not drawn),-3.2%,-0.1,-21,7%,1,12%,4%
Cc1ccc(C(O)P(=O)(OCCC(C)C)c2ccc(N(C)C)cc2)cc1 (stereo not drawn),-1.2%,-3.2,16,-3%,-10,-3%,-3%
O=[N+]([O-])c1ccc2nc(CCCc3nc4ccc([N+](=O)[O-])cc4[nH]3)[nH]c2c1,·,-1.0,8,10%,24,-18%,-4%
Cc1cc([N+](=O)[O-])nn1CC(=O)NCCc1c[nH]c2ccccc12,-2.2%,1.4,-4,19%,-5,-5%[15.4 µM],-1%
COc1ccc(C(=O)CCC(=O)Nc2ccc(Cl)cc2)cc1,-0.8%,2.2,13,9%,3,?,-21%
COc1ccc(NC(=O)c2sc3nc(-c4ccc(OC)cc4)cc(C(F)(F)F)c3c2N)cc1,-12%,·,13,·,16,·,·
Cc1ccc(NC(=O)CNc2ccc(Cl)c(Cl)c2)cc1S(=O)(=O)N(C)C,0.9%,4.7,11,-3%,1,-33%,40µM*
CSc1ccccc1NC(=O)Nc1ccccc1,-0.4%,5.5,-7,-4%,-13,?,3%
COc1cccc(N=CC2=C(O)CC(C)(C)CC2=O)c1,-0.4%,2.5,-9,7%,0,-38%[inhibitor],6%
Cc1ccc2c(c1)C1(OCCCO1)C(=O)N2CC#N,-3.3%,-0.9,-62,17%,·,-1%,10%
CCn1c(NC(=O)c2ccc(F)cc2)c2ccccc2nc1=O,1.2%,1.2,9,8%,-5,-25%,3%
Cc1[nH]nc(SCC(=O)N(C)c2ccccc2)c1[N+](=O)[O-],-3.3%,-1.2,-10,?,12,-1%,8%
O=C(COc1ccc(C(=O)c2ccccc2)cc1)NC1CCCCC1,0.8%,4.2,-15,-1%,-11,-10%,10%
COc1ccc(C)cc1NC(=O)c1cc(S(=O)(=O)N2CCOCC2)cn1C,0.7%&-4.9%,1.3,3,13%,7&2,?,-2%
COc1cccc(C2NC(=S)NC(C)=C2C(=O)c2ccccc2)c1OC (stereo not drawn),·,16,-6,8%,-23,?,21%

# Remaining list, next part
SMILES,ClpP mod,Menin MLL FP FL,TRPV1 PAM,Sfp PPTase inh,TRPML1 blocker,gsp agonist,gsp antag
COc1cccc(NC(=O)C(C)Oc2ccccc2)c1 (stereo not drawn),-1.8%,2.1,-11,-2%,8,0%,5%
O=c1cc(N2CCCCCC2)[nH]c(=O)n1-c1ccccc1Cl,1.0%,-0.9,8,16%,-3,-62%[inhibitor],2%
Cc1cccc(N2CN(Cc3ccco3)CNC2=S)c1,-7.1%,0.6,8,21%,-24,19%,20%
COc1ccc(NC(=O)c2ccc(NC(=O)CCS(=O)(=O)c3cccs3)cc2)cc1,4.8%,-0.6,-11,10%,4&-7,-7%,-8%
CC(=O)c1ccc(NS(=O)(=O)c2cc3c(cc2C)N(C)CCO3)cc1,-1.1%,3.0,-3,7%,3,-43%,-4%
COc1ccc(C(=O)NCCn2cc(SCC(N)=O)c3ccccc32)cc1,-2.4%,-0.3,27,18%,3,10%,?
Cc1c(C(=O)N(C)Cc2ccccc2)oc2ccc(S(=O)(=O)N3CCCC3)cc12,-1.2%,-1.6,-13,-4%,-9,19%,-13%
NNC(=O)c1cc(-c2ccc(N)cc2)nc2ccc(Br)cc12,0.5%,6.1,-3,6%,3,9%,-7%
COC(=O)c1[nH]c2c(c1C)C(=O)CC(c1cc(OC)c(OC)c(OC)c1)C2 (stereo not drawn),-1.0%,-1.2,8,14%,-11,-6%,-29%
OCc1cn(-c2ccccc2)nc1-c1cc2ccccc2o1,3.0%,4.2,6,56µM*,-11,21%,0%
COC(=O)c1nn(-c2ccccc2)c(-c2ccccc2)c1C(=O)c1ccccc1,-4.1%,2.2,·,11%,34,-24%,-2%[15.4 µM]
Cc1cc[n+](-c2[nH]c(=O)sc2/C=N/N=C(\[O-])c2ccccc2)cc1,·,2.0,·,?,1,-14%,-4%
O=C(COC(=O)Cc1cccs1)Nc1ccccc1Cl,·,1.7,-4,4%,4,-6%[15.4 µM],14%
Cc1ccccc1NC(=O)c1nnn(-c2ccc3c(c2)OCCO3)c1N,·,·,5,4%,5,-10%[15.4 µM],-10%
Cc1ccc2c(C(=O)CN3CCC4(CC3)OCCO4)c(C)[nH]c2c1,2.9%,1.6,-2,18%,8,-45%[inhibitor],21%
COC(=O)C1CC2=C(CCC2=O)N(c2ccccc2)C1=O (stereo not drawn),-12%,·,·,·,-13,·,6%
COc1ccc(Nc2ccncc2[N+](=O)[O-])cc1,·,1.9,-7,5%,58,-25%[15.4 µM],5%
Cc1ccc(CN2C3=NCCCN3c3ccccc32)cc1,-2.7%,6.6,-6,14%,-8,4%,7%
COCCNC(=O)COc1ccc(C)cc1C(=O)c1cc(C#N)c(=O)n(C2CC2)c1,·,-4.1,-2,7%,-5,-16%[15.4 µM],6%
